Source: PubChem BioAssay (Broad Institute)
Env fusion inh: inhibitors of HIV-1 Env-driven cell-cell fusion, primary screen, HeLa-JRFL effector, CEM21 target cells, luciferase; inhibition, % at 12.3 µM; hit rate 1.1% among 360,000;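 active means mean replicate inhibition score of at least 50 and every replicate individually at or above 50; inconclusive means only one of the two criteria met; inactive means mean below 50 and not all replicates reaching 50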;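 further: 0% = plate neutral controls and 100% = maraviroc near 300 nM; one replicate is shown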
The depositor's hits bear a star; ? = inconclusive; [ ] = remark or other dose. An excerpt; count on the stated rates, not on these rows.

Env fusion inh	mol
35	Cc1onc(-c2ccccc2)c1C(=O)NN=Cc1cc(Cl)cc(Cl)c1O
18[16.7 µM]	O=C(NCC1CC1)[C@H]1[C@H](CO)[C@H]2Cn3c(ccc(-c4cccnc4)c3=O)[C@@H]1N2C(=O)C1CC1
3[16.7 µM]	COC(=O)[C@H]1[C@H](CO)[C@H]2Cn3c(ccc(/C=C/c4ccccc4)c3=O)[C@H]2N1C(=O)C1CCCC1
-33[16.7 µM]	CO[C@H]1CC[C@@H]2CCN(C)C(=O)C[C@H](c3ccccc3)CN(C)C(=O)c3cc(C#N)ccc3OC[C@@H]1O2
-42[16.7 µM]	COc1cccc(NC(=O)N(C)C[C@H]2Oc3ncc(C#Cc4ccncc4)cc3C(=O)N([C@H](C)CO)C[C@@H]2C)c1
-27[16.7 µM]	COCC(=O)Nc1ccc2c(c1)[C@H]1C[C@@H](CC(=O)N3CCOCC3)O[C@H](CO)[C@H]1O2
42[16.7 µM]	COc1cccc(-c2ccc3c(c2)[C@H]2[C@H](CCN2C(=O)NC2CCCCC2)[C@H](CO)N3C)c1
-6[16.7 µM]	COc1ccc(NC(=O)N(C)C[C@@H]2Oc3ccc(NS(=O)(=O)c4ccc(C)cc4)cc3C(=O)N([C@@H](C)CO)C[C@@H]2C)cc1
6[16.7 µM]	CC(C)[C@H]1COCc2cn(nn2)CC[C@@H](Cc2ccccc2)C(=O)N1
-4	COCc1[nH]nc2c1C(c1ccccc1)N(c1ccccc1)C2=O (stereo not given)
6[16.7 µM]	C[C@@H]1CN([C@H](C)CO)C(=O)c2c(c3ccccc3n2C)-c2ccccc2CO[C@H]1CN(C)S(=O)(=O)c1cccc(C#N)c1
8[16.7 µM]	COc1ccccc1C(=O)Nc1ccc2c(c1)OC[C@@H](C)N(C(C)=O)C[C@@H](C)[C@H](OC)CN(C)C2=O
19	CC1CCCN(c2cccc3c2S(=O)(=O)N(Cc2cccc(Cl)c2)[C@@H](C)[C@H](c2ccccc2)O3)C1 (stereo not given in full)
8[16.7 µM]	CO[C@H]1CC[C@@H]2CCN(C)C(=O)[C@@H](C)[C@@H](OC)CN(C)C(=O)c3cccc(C#N)c3OC[C@@H]1O2
-35[16.7 µM]	C[C@@H]1CN([C@H](C)CO)S(=O)(=O)c2ccc(C#CC3CC3)cc2O[C@@H]1CN(C)C(=O)Nc1cc(F)ccc1F
-1[16.7 µM]	O=C(C1=C[C@@H](c2ccc(Br)cc2)C[C@@H](OCCCCO)O1)N1CCCCCCC1

A few values from above:
Env fusion inh, COCc1[nH]nc2c1C(c1ccccc1)N(c1ccccc1)C2=O (stereo not given) → -4
Env fusion inh, CO[C@H]1CC[C@@H]2CCN(C)C(=O)[C@@H](C)[C@@H](OC)CN(C)C(=O)c3cccc(C#N)c3OC[C@@H]1O2 → 8[16.7 µM]

The results go on:
Env fusion inh	mol
-30[16.7 µM]	C[C@@H]1CN([C@H](C)CO)C(=O)Cc2cc(NC(=O)Cc3cn(C)c4ccccc34)ccc2O[C@H]1CN(C)S(=O)(=O)c1ccc(Cl)cc1
-11[16.7 µM]	CC(C)NC(=O)N(C)C[C@@H]1Oc2ccc(NC(=O)Cc3cn(C)c4ccccc34)cc2CC(=O)N([C@@H](C)CO)C[C@@H]1C
-8[16.7 µM]	C[C@@H]1CN([C@H](C)CO)C(=O)CCCn2nncc2CO[C@@H]1CN(C)Cc1ccc(Cl)c(Cl)c1
-6[16.7 µM]	Cc1noc(C)c1S(=O)(=O)Nc1ccc2c(c1)C(=O)N([C@H](C)CO)C[C@@H](C)[C@@H](CN(C)S(=O)(=O)c1c(C)noc1C)O2
6[16.7 µM]	CC=Cc1ccc2n(c1=O)C[C@@H]1[C@@H](CO)[C@H](C(=O)Nc3ccccc3)N(CC3CCCC3)[C@H]21 (mixture of isomers)
21[16.7 µM]	CCOC(=O)c1cc2c(c(-c3cccc(-c4cccc(F)c4)c3)n1)[C@H](CCO)N(S(=O)C(C)(C)C)C2 (stereo not given in full)
-32	O=C1NC(c2cccc(C(F)(F)F)c2)c2c(-c3ccccc3)n[nH]c21 (stereo not given)
-55	CC(C)CC1O[C@@H](C)[C@@H]2CN3CCc4c([nH]c5ccccc45)[C@@H]3C[C@@H]2N1C (stereo not given in full)
-1[16.7 µM]	CCCNC(=O)N1C[C@@H](C)[C@@H](OC)CN(C)C(=O)c2ccc(NS(=O)(=O)CC(F)(F)F)cc2OC[C@H]1C
?	CN(c1cccnc1)c1ccc(NC(=O)Cc2c[nH]c3ccccc23)cc1-c1cccnc1F
9[16.7 µM]	C[C@H](CO)N1C[C@H](C)[C@H](CN(C)C(=O)C2CCCCC2)OCc2cn(nn2)CCCC1=O
14	CN(C)Cc1c(C(C)(C)O)[nH]c2cc(F)ccc12
-2[16.7 µM]	CO[C@@H]1CC[C@H]2CCN(C)C(=O)[C@@H](C)N(C)C(=O)c3cc(C#N)ccc3OC[C@@H]1O2
0[16.7 µM]	C[C@H]1CN([C@@H](C)CO)C(=O)Cc2cc(NC(=O)C3CC3)ccc2O[C@@H]1CN(C)Cc1ccc(Cl)c(Cl)c1
-34[16.7 µM]	O=C(C[C@@H]1CC[C@H](NC(=O)Cc2ccccn2)[C@H](CO)O1)NCCc1ccncc1
9[16.7 µM]	COCC(=O)Nc1ccc2c(c1)OC[C@@H](C)N(C(=O)NC(C)C)C[C@@H](C)[C@H](OC)CN(C)C2=O
-8[16.7 µM]	C[C@@H]1CN([C@H](C)CO)C(=O)CCCn2cc(nn2)CO[C@@H]1CN(C)C(=O)Nc1cccc(F)c1
-11	CCCN1CCCCC(NC(=O)c2ccc(-c3ccccc3)cc2)C1=O (stereo not given)
-1[16.7 µM]	CO[C@H]1CN(C)C(=O)c2cc(NC(=O)NC(C)C)ccc2OC[C@H](C)NC[C@@H]1C
4[16.7 µM]	CO[C@@H]1CC[C@H]2CCN(C)C(=O)[C@H](C)N(C)C(=O)c3cc(C#N)ccc3OC[C@@H]1O2
5[16.7 µM]	CN1C(=O)c2cc(NC(=O)Nc3ccccc3)ccc2OC[C@@H]2O[C@@H](CC(=O)O)CC[C@@H]21
-6[16.7 µM]	C[C@H](CO)N1C[C@H](C)[C@@H](CN(C)C(=O)NC2CCCCC2)Oc2cc(C#Cc3cccc(F)c3)ccc2S1(=O)=O
-13[16.7 µM]	C[C@H](CO)N1C[C@H](C)[C@H](CN(C)C(=O)Nc2ccc(N3CCCCC3)cc2)OCc2cn(nn2)CCCC1=O
-9[16.7 µM]	C[C@@H]1CN([C@@H](C)CO)C(=O)c2cc(NC(=O)c3ccccc3)ccc2O[C@@H](C)CCCCO[C@H]1CN(C)C(=O)CCCN(C)C
-30[16.7 µM]	C[C@H](CO)N1C[C@H](C)[C@H](CN(C)Cc2ccc(C(=O)O)cc2)Oc2ccc(NS(=O)(=O)c3ccc(Cl)cc3)cc2CC1=O
6[16.7 µM]	COC(=O)C[C@@H]1CC[C@@H]2[C@@H](COc3ccc(NC(=O)Cc4cccs4)cc3C(=O)N2C)O1
14[16.7 µM]	C[C@H](CO)N1C[C@H](C)[C@H](CN(C)C(=O)c2ccc3c(c2)OCO3)Oc2cc(-c3ccccc3)ccc2S1(=O)=O
-15[16.7 µM]	COc1cccc(S(=O)(=O)N2CC3(CN[C@H](CO)c4c3c3ccc(OC)cc3n4C)C2)c1
-85	Cc1cc(-c2cc(NC(=O)Cc3c[nH]c4ccccc34)ccc2N(C)c2cccnc2)ccc1F
5[16.7 µM]	CO[C@H]1CC[C@H]2CCN(C)C(=O)[C@@H](C)N(C)C(=O)c3cccc(C#N)c3OC[C@@H]1O2
58*[16.7 µM]	C[C@H]1CN([C@@H](C)CO)C(=O)Cc2cc(N(C)C)ccc2O[C@H]1CN(C)Cc1ccc(Cl)c(Cl)c1
-29	COC(=O)C1=C(C)N(Cc2cccc(C(F)(F)F)c2)C(=NCc2ccccc2)NC1c1ccc(Cl)cc1 (stereo not given)

Sorted by number of heavy atoms (descending): six of the compounds above
Env fusion inh	mol
-9[16.7 µM]	C[C@@H]1CN([C@@H](C)CO)C(=O)c2cc(NC(=O)c3ccccc3)ccc2O[C@@H](C)CCCCO[C@H]1CN(C)C(=O)CCCN(C)C
14[16.7 µM]	C[C@H](CO)N1C[C@H](C)[C@H](CN(C)C(=O)c2ccc3c(c2)OCO3)Oc2cc(-c3ccccc3)ccc2S1(=O)=O
-29	COC(=O)C1=C(C)N(Cc2cccc(C(F)(F)F)c2)C(=NCc2ccccc2)NC1c1ccc(Cl)cc1 (stereo not given)
-85	Cc1cc(-c2cc(NC(=O)Cc3c[nH]c4ccccc34)ccc2N(C)c2cccnc2)ccc1F
-15[16.7 µM]	COc1cccc(S(=O)(=O)N2CC3(CN[C@H](CO)c4c3c3ccc(OC)cc3n4C)C2)c1
5[16.7 µM]	CO[C@H]1CC[C@H]2CCN(C)C(=O)[C@@H](C)N(C)C(=O)c3cccc(C#N)c3OC[C@@H]1O2

Following part:
Env fusion inh	mol
-6[16.7 µM]	C[C@H]1CCCCO[C@@H](CN(C)Cc2ccncc2)[C@@H](C)CN([C@@H](C)CO)C(=O)c2cc(NC(=O)c3ccncc3)ccc2O1
18[16.7 µM]	COC(=O)C[C@H]1C[C@@H]2c3cc(NC(=O)c4ccc5c(c4)OCO5)ccc3O[C@@H]2[C@@H](CO)O1
5[16.7 µM]	O=C(N[C@@H]1CC[C@H](CCNS(=O)(=O)c2ccc(Cl)cc2)O[C@@H]1CO)c1ccccn1
24[16.7 µM]	COc1ccccc1-c1cccc(-c2nc(C(=O)NCc3ccncc3)cc3c2[C@H](CCO)N([S@@](=O)C(C)(C)C)C3)c1
-10[16.7 µM]	C/C=C/c1ccccc1[C@@H]1[C@H](C#N)N(c2ncc(CC)s2)[C@H]1CO
25[16.7 µM]	CO[C@@H]1CN(C)C(=O)c2cc(NC(=O)c3cc(C)on3)ccc2OC[C@H](C)NC[C@H]1C
-4[16.7 µM]	Cc1noc(C)c1S(=O)(=O)Nc1ccc2c(c1)CC(=O)N([C@@H](C)CO)C[C@H](C)[C@H](CN(C)Cc1ccc(-c3ccccc3)cc1)O2
8[16.7 µM]	COc1ccc(CN(C)C[C@@H]2OCCCC[C@@H](C)Oc3ccc(NC(=O)C4CCCCC4)cc3C(=O)N([C@@H](C)CO)C[C@@H]2C)cc1
6[16.7 µM]	Cc1ccc(S(=O)(=O)Nc2ccc3c(c2)C(=O)N([C@H](C)CO)C[C@@H](C)[C@H](CN(C)Cc2ccccc2)O3)cc1
-13	Nc1[nH]c(C(=O)c2ccccc2)c(-c2ccc(Br)cc2)c1C(=O)c1ccccc1
-17[16.7 µM]	CO[C@H]1CN(C)C(=O)c2cc(NC(=O)Nc3ccc(C(F)(F)F)cc3)ccc2OC[C@@H](C)NC[C@H]1C
43[16.7 µM]	CO[C@@H](CN(C)S(=O)(=O)c1ccc(Cl)cc1)[C@@H](C)CN([C@@H](C)CO)S(=O)(=O)c1cccc(Cl)c1
10[16.7 µM]	Cc1noc(C)c1S(=O)(=O)Nc1ccc2c(c1)C(=O)N([C@@H](C)CO)C[C@@H](C)[C@H](CN(C)C(=O)Nc1ccccc1)O2
-35	CN(C)c1ccc(C(=O)NCC2CCN(C(=O)C(=O)c3cccs3)CC2)cc1
-5[16.7 µM]	CC(C)NC(=O)Nc1ccc2c(c1)C(=O)N([C@H](C)CO)C[C@H](C)[C@H](CN(C)CC1CCCCC1)OCCCC[C@@H](C)O2
7	COc1ccccc1C(=O)N1CCC2CCN(C(=O)OC(C)(C)C)C2C1 (stereo not given)

Three compounds from above, arranged by the number in Env fusion inh, rising.
Env fusion inh	mol
-85	Cc1cc(-c2cc(NC(=O)Cc3c[nH]c4ccccc34)ccc2N(C)c2cccnc2)ccc1F
14	CN(C)Cc1c(C(C)(C)O)[nH]c2cc(F)ccc12
35	Cc1onc(-c2ccccc2)c1C(=O)NN=Cc1cc(Cl)cc(Cl)c1O

Remaining list, next part.
Env fusion inh	mol
6	CN1CCCCC(NC(=O)c2ccccn2)C1=O (stereo not given)
11[16.7 µM]	CNC[C@@H]1OCCCC[C@@H](C)Oc2ccc(NC(=O)NC(C)C)cc2C(=O)N([C@H](C)CO)C[C@@H]1C
13[16.7 µM]	CCCNC(=O)N1C[C@@H](C)[C@H](OC)CN(C)C(=O)c2cc(NC(=O)CCC)ccc2OC[C@@H]1C
9	CN(Cc1ccc2c(c1)CCCN2C)C(=O)[C@@H](Cc1ccccc1)NC(=O)[C@H]1O[C@@H](n2ccc(=O)[nH]c2=O)[C@H](O)[C@@H]1O
-1	C=CCN1C(=O)[C@]2(OCCC=C[C@H]2C)c2cc(OC)ccc21
47	C[C@@H]1CN(C(=O)OC(C)(C)C)CCN1c1ccc(N2CCS(=O)(=O)CC2)c(C#N)c1
-1[16.7 µM]	CN1C(=O)c2cc(NS(C)(=O)=O)ccc2OC[C@@H]2O[C@@H](CC(=O)NCc3ccc(-c4ccccc4)cc3)CC[C@@H]21
-10[16.7 µM]	CO[C@H]1CN(C)C(=O)c2cc(NS(C)(=O)=O)ccc2OC[C@H](C)N(Cc2cncnc2)C[C@H]1C
-281	Cc1cc(NC(=O)Cc2c(C)[nH]c3ccccc23)ccc1Oc1cccnc1
-11[16.7 µM]	CN1CCN(C(=O)C[C@H]2C=C[C@@H](NS(=O)(=O)c3cccc(F)c3)[C@H](CO)O2)CC1
-11[16.7 µM]	COc1cccc(CNC(=O)c2cc3c(c(-c4cccc(-c5cccc(C#N)c5)c4)n2)[C@H](CCO)N([S@@](=O)C(C)(C)C)C3)c1
-7[16.7 µM]	C[C@H](CO)N1C[C@H](C)[C@H](CN(C)C(=O)C2CC2)Oc2cc(-c3ccc(C(=O)N(C)C)cc3)ccc2S1(=O)=O
12	Cc1cc(Nc2ccc(Cl)c(C(F)(F)F)c2)cc(=O)n1-c1ccc(Cl)c(C(F)(F)F)c1
